FGF22 binding = binders of recombinant human FGF22 by thermal shift | Q9HCT0 | SYPRO orange fluorescence; percent of sucrose octasulfate shift, DMSO zero | calls only at 9.99 µM | 1.5% of 340,000 active | AID 651658;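 active means melting point raised past a set limit in the mean and every replicate; inconclusive means no clear call; three in four hits are not shown here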
Target sequence (Q9HCT0 whole entry, looked up): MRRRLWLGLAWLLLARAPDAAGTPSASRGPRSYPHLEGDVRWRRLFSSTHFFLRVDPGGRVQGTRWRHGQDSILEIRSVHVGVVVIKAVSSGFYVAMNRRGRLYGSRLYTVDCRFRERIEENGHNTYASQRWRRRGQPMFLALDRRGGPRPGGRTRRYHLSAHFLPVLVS
T cruzi repl = blocks replication of Trypanosoma cruzi; 1.4% of 300,000 active; inhibition, % (no concentration beside the values); T. cruzi beta-gal in NIH3T3, luminescence, 90 h;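 active means mean inhibition across valid replicates above about 55%, limit read from the data; inconclusive means mean below that limit but half or more replicates reach it; inactive means mean below it, under half of replicates reach it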;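 further: signal also drops with host cell toxicity which is not excluded here; 0% = plate median of DMSO wells and 100% = zero luminescence signal; higher percent means less beta-gal luminescence so fewer parasites; stock transfer was 50 nL into about 50 µL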
Calb FLC = affects C. albicans growth with fluconazole; growth inhibition, % (concentration not given with the values); C. albicans CaCi-2 (fluconazole-resistant clinical isolate) + fluconazole, Alamar Blue growth, 48 h; 0.57% of 300,000 active; AID 1979;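 active means most replicates above 75%; inconclusive means exactly half above 75%; inactive means most below 75%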;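 further: all wells also contain fluconazole at 8 µg/ml as a sub-toxic cotreatment; 0% = median of DMSO wells and 100% = median of geldanamycin control wells; wells of about 8 µL received 7.5 nL stock; the first replicate is given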
ALR H2O2 inh = inhibitors of human sulfhydryl oxidase ALR; P55789; purified ALR, DTT oxidation, H2O2 HRP-luminol luminescence; inhibition, % (test concentration not listed); 3.8% of 290,000 active;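 active means mean and each replicate at 75% or more; inconclusive means only one of the two met; inactive means neither met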;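 further: stock transfer was 7.5 nL into about 7.5 µL; 0% = neutral wells and 100% = wells with inactivated enzyme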
Target sequence (P55789 whole entry, looked up): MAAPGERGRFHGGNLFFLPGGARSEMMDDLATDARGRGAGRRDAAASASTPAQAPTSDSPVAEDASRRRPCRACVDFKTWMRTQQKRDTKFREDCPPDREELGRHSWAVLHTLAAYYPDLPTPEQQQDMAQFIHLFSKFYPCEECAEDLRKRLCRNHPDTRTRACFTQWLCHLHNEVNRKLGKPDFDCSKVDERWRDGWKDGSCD
RanGTP-Imp inh = inhibitors of RanGTP-importin-beta interaction, primary screen, biochemical, FRET, CFP-Ran, YFP-importin-beta, homogeneous. 1.1% of 300,000 active. inhibition, % (concentration not given with the values). cell-free CFP-Ran/YFP-importin-beta FRET ratio;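 active means most replicates above 15%; inconclusive means exactly half above 15%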;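 further: 0% = DMSO wells and 100% = Ran loaded with GDP instead of GTP; wells of about 40 µL received 100 nL stock; the first replicate is given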
Ecoli rRNA inh = inhibits bacterial ribosomal RNA function over humanized ribosomes. E. coli WT GFP vs humanized-ribosome RFP mutants, fluorescence, 24 h; hits give low values; DMSO median 0, no signal -100. GFP signal change (wild-type ribosome), % (concentration not given with the values). 1.6% of 350,000 active;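 active means significant combined selectivity score with lowered wild-type GFP, culture density cut under 30%, mutant RFP and density less affected; inactive means any of these conditions unmet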; further: one replicate is shown; some compounds called inactive have numbers as strong as hits
MLL AF4-AF9 inh = inhibitors of human MLL-AF4/AF9 interaction; P42568; AlphaScreen, biotin-AF4 peptide binding to FLAG-AF9; inhibition, % at 10 µM; 0.47% of 350,000 active; AID 651704;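 active means every replicate reaching a set inhibition limit, whatever the replicate mean, cut at about 25% in these data; inconclusive means mean inhibition reaches that limit but some replicates miss it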;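 further: 0% = plate neutral control median and 100% = total signal loss; the record names both 10 and 1 µM as test concentration; the first replicate is given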
Target sequence (P42568 whole entry, looked up): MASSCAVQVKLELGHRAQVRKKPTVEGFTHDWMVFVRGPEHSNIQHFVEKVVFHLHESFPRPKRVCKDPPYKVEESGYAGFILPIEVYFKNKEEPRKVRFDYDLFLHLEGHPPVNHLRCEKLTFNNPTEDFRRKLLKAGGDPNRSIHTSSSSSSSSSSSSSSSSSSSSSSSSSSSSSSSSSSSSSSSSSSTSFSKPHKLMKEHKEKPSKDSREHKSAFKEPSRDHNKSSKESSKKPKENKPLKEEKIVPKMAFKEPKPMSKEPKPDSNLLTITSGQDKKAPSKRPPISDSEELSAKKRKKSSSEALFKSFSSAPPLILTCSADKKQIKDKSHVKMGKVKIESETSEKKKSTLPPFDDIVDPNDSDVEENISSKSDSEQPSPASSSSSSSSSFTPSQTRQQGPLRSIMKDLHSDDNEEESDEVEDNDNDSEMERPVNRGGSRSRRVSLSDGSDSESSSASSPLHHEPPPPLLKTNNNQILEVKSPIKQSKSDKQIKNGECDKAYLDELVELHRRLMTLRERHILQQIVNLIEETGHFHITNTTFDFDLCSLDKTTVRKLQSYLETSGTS
Beta cell apopt = beta cell apoptosis inhibition; INS-1E cytokine-induced death, ATP luminescence, 48 h; percent of positive-control rescue, neutral wells zero; protection from apoptosis, % (no concentration beside the values); 0.8% of 300,000 active;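 active means all replicates at 75% or more, or half of them and the mean; inconclusive means half reach 75% but not the mean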;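 further: 0% = cytokine-treated negative control wells and 100% = positive control rescue; higher means more ATP so stronger rescue from cytokine killing; wells of about 40 µL received 100 nL stock; the first replicate is given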
Ecoli rRNA inh OD600 = recorded beside Ecoli rRNA inh, whose call it bears; OD600 change, %; measured here: OD600 growth;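 optical density of the mix in the first replicate; 0 = DMSO median and -100 = no signal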
Ecoli rRNA inh RFP = recorded beside Ecoli rRNA inh, whose call it bears; RFP signal change, %; measured here: RFP humanized mutant strains;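 first replicate; 0 = DMSO median and -100 = no signal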
* = called active by the depositor; i = inactive; ? = inconclusive; · = no result given. Not all compounds are listed; count on the stated rates, not on these rows.

Every second line gives: FGF22 binding	T cruzi repl	Calb FLC	ALR H2O2 inh	RanGTP-Imp inh	Ecoli rRNA inh	Ecoli rRNA inh OD600	Ecoli rRNA inh RFP	MLL AF4-AF9 inh	Beta cell apopt
- O=C(CCn1c(=O)sc2ccccc21)NCc1cccs1
    ·	-7	13	0	-1.3	6	6	7.3	·	·
- COC(=O)c1sc(-c2ccc(C(C)(C)C)cc2)cc1NC(=O)COCC(=O)O
    i	-8	?	98*	2.9	-20	-17	-3.2	1.5	-2
- CCCC(C(=O)NCCC(C)C)N(Cc1ccccc1Cl)C(=O)c1snc(C(N)=O)c1N (stereo not given)
    i	16	1	-18	2.9	0	-19	-0.2	-5.9	-1
- CCC(Oc1ccccc1)C(=O)N1CCN(S(=O)(=O)c2ccccc2)CC1 (stereo not given)
    i	·	·	-3	·	-4	-2	-0.8	-11	-4
- O=C(Nc1ccc2c(c1)OCO2)c1ccc[n+]([O-])c1
    ·	3	-4	-5	0.7	·	·	·	·	-4
- CN(c1ccccc1)S(=O)(=O)c1ccc(C(=O)N2CCCC(C(F)(F)F)C2)cc1 (stereo not given)
    i	9	4	2	3.8	-9	-26	-1.1	-1.4	-2
- CC(C)=C1SC(N2CCOCC2)=NC1=O
    ·	-2	13	-4	4.3	·	·	·	·	2
- O=C(/C=C/c1ccccc1[N+](=O)[O-])N1CCc2ccccc2C1
    i	-3	-12	24	-4.1	-1	-5	2.1	?	0
- CCOc1ccc(-c2c(C(=O)N/N=C/C3CC=CCC3)nnn2-c2nonc2N)cc1 (stereo not given)
    i	-5	0	11	1.0	5	4	2.2	-2.7	-1
- CCOC(=O)C1CCN(CCC(=O)Nc2ccc(Cl)cc2)CC1
    ·	6	-3	-8	5.3	·	·	·	·	-1
- Nc1c(C(=O)NCc2ccco2)sc2nc3c(cc12)C(=O)CCC3
    i	12	28	·	0.1	16	-1	-6.0	2.3	·
- CCOC(=O)c1c(NC(=O)Nc2cccc(Cl)c2)sc(C)c1C
    ·	23	?	-10	2.5	11	9	3.0	·	11
- Cc1ccc2c(C)c(C(=O)N(C)C(C)c3ccon3)oc2c1C (stereo not given)
    i	15	0	-4	1.9	-14	-36	-2.1	-2.3	-5
- CCOc1ccc(C(=O)NCc2ccco2)cc1OCC
    i	6	2	·	-0.4	4	11	0.1	-9.5	0
- CCOc1ccccc1/C=N/Nc1ccnc(=O)[nH]1
    i	-9	-10	-6	2.4	7	4	-2.4	-2.3	21
- CCCCn1c(CN2CCN(c3ccccc3)CC2)nc2c1c(=O)n(C)c(=O)n2C
    ·	8	-1	·	0.7	·	·	·	·	12
- Cc1ccc(N(C(=O)C2CCCO2)C2C=CS(=O)(=O)C2)cc1Cl (stereo not given)
    i	-4	-7	1	0.7	9	9	1.2	-6.0	-4
- CCn1c(SCC(=O)Nc2ccc3c(c2)c2ccccc2n3CC)nnc1-c1cnccn1
    ·	?	0	-1	2.6	·	·	·	·	·
- CCCN1CC23C=CC(O2)C(C(=O)O)C3C1=O (stereo not given)
    i	-7	6	-6	-1.4	3	9	-1.3	-2.2	-3
- Cc1ccc(S(=O)(=O)Nc2ccnc(-c3cccnc3)n2)cc1
    ·	-5	-5	-3	·	-8	-12	-5.4	-1.6	-2

In the list so far, these contain a COOH group.
Every second line gives: FGF22 binding	T cruzi repl	Calb FLC	ALR H2O2 inh	RanGTP-Imp inh	Ecoli rRNA inh	Ecoli rRNA inh OD600	Ecoli rRNA inh RFP	MLL AF4-AF9 inh	Beta cell apopt
- COC(=O)c1sc(-c2ccc(C(C)(C)C)cc2)cc1NC(=O)COCC(=O)O
    i	-8	?	98*	2.9	-20	-17	-3.2	1.5	-2
- CCCN1CC23C=CC(O2)C(C(=O)O)C3C1=O (stereo not given)
    i	-7	6	-6	-1.4	3	9	-1.3	-2.2	-3

New compounds follow.
Every second line gives: FGF22 binding	T cruzi repl	Calb FLC	ALR H2O2 inh	RanGTP-Imp inh	Ecoli rRNA inh	Ecoli rRNA inh OD600	Ecoli rRNA inh RFP	MLL AF4-AF9 inh	Beta cell apopt
- Cc1cccc(/C=N/NC(=O)Cc2ccc(Cl)cc2)c1O
    i	3	-4	·	4.3	5	14	0.0	-4.9	·
- COc1cccc(CN(C)C(=O)C23CC4CC(CC(C4)C2)C3)c1
    i	18	0	-4	-1.0	-51	-76	-19	-5.5	-1
- O=C(Nc1ccc([N+](=O)[O-])cc1)Nc1ccon1
    i	-9	?	-1	7.9	4	14	-2.2	-2.7	33
- CCN(c1ccccc1)S(=O)(=O)c1cc2c3c(c1)C(C)C(=O)N3CCC2 (stereo not given)
    i	-10	-1	0	0.9	0	2	1.3	-0.9	0
- NNC(=O)CNc1cccc(Br)c1
    i	1	6	0	-1.2	5	2	0.4	0.0	4
- Cc1ccccc1NC(=O)Cn1c(=O)n(C)c2ccccc21
    ·	6	3	-11	0.0	·	·	·	·	-1
- O=C(CSc1ccc([N+](=O)[O-])cc1)Nc1cccc(S(=O)(=O)Nc2ccccc2F)c1
    i	20	10	-3	?	-1	1	0.8	-3.3	-12
- COc1ccc(Cc2c(O)nc(SCC(=O)c3ccc(OC)cc3)[nH]c2=O)cc1
    i	1	?	98*	0.3	12	4	0.1	-1.9	·
- Cc1cccc(Cc2nnc(CCC(=O)N(C)C3CCOC3)o2)c1 (stereo not given)
    i	-1	-9	-18	-13	7	8	2.0	-1.1	1
- COc1ccc(C2=NN(CCC(=O)NCc3ccc4c(c3)OCO4)C(=O)CC2)cc1
    ·	-3	9	-3	-3.1	·	·	·	·	-16
- O=C(Nc1ccccc1C(=O)O)c1cccc(NC(=O)c2ccco2)c1
    ·	-3	3	14	4.0	-3	5	5.3	-4.2	-13
- COc1ccccc1NC(=S)N1CCN(C(=O)C2CCCO2)CC1 (stereo not given)
    i	-5	?	·	0.8	-19	-31	-8.3	-1.8	-5
- CC(C)CCNC(=O)CN(Cc1ccc2c(c1)OCO2)C(=O)CCC(=O)Nc1ccccn1
    ·	12	-14	-10	4.7	·	·	·	·	-4
- CCOC(=O)c1ccc(NC(=O)CNC(=O)c2ccccc2)cc1
    ·	-14	-19	-29	1.1	·	·	·	·	9
- O=C(C1=C(O)C(=O)N(CCN2CCOCC2)C1c1ccccc1)c1cccs1 (stereo not given)
    ·	-13	-1	-1	2.5	·	·	·	·	-8
- Fc1cccc(C2CC(c3cccc(Br)c3)Nc3nnnn32)c1 (stereo not given)
    ·	7	4	-13	0.9	·	·	·	·	1
- CCOC(=O)NC1(C(F)(F)F)N=C(c2ccccc2)NC1=O (stereo not given)
    ·	-6	-5	·	3.6	·	·	·	·	-2
- Cc1ccc(NC(=O)Cn2c(CCC(=O)O)ccc2-c2cccs2)cc1
    ·	-25	32	18	4.1	·	·	·	·	0
- Cc1ccc(N2CCN(/N=C/c3c(C)nn(-c4ccccc4)c3Cl)CC2)cc1
    i	-4	-1	4	-1.6	11	5	2.5	-1.0	-3
- Cc1ccc(C(O)C(=O)c2ccco2)cc1 (stereo not given)
    i	-15	1	-7	0.5	9	15	-2.2	·	-6
- Cc1cc(C)n(C(C)CNS(=O)(=O)c2ccc(Cl)cc2)n1 (stereo not given)
    i	-2	9	0	6.9	2	2	0.4	-12	0
- Cc1[nH]nc2oc(=O)c(CCO)c(C)c12
    ·	2	8	1	2.4	·	·	·	·	-4
- COc1ccc(NCc2nnc(SCC(=O)Nc3cccc(C)c3)o2)cc1
    ·	-5	-10	99*	-1.6	·	·	·	·	-6
- Cc1ccc(-c2nc(=S)c3c(n2CCN2CCOCC2)CC(C)(C)OC3)cc1
    ·	17	7	-5	-6.2	·	·	·	·	1
- C=CCNC(=S)Nc1ccccc1-c1nnc2n1CCCCC2
    i	-15	2	·	0.5	4	11	-0.4	0.2	3
- CC(=O)N[C@H]1[C@H]([C@H](O)[C@H](O)CO)OC(C(=O)O)=C[C@@H]1O
    i	-6	·	-14	1.4	12	16	-0.4	-0.9	2
- O=C(Nc1ncc(S(=O)(=O)c2ccc([N+](=O)[O-])cc2)s1)c1ccccc1F
    i	45	8	·	2.9	17	1	-1.4	5.5	6
- COc1ccc(NC(=O)c2ccc(Cn3cc(Cl)cn3)cc2)cc1
    i	22	24	-6	?	12	8	-1.1	0.3	-2
- CCCOC(=O)Nc1nc(-c2ccc(C)cc2)c(C)s1
    i	12	-51	3	6.6	-8	-4	-3.0	0.3	1
- CN1CCN(C(=O)/C=C/c2ccccc2)CC1
    i	-17	15	-5	-0.9	7	0	-1.7	-0.2	-5
- CCCN(CCC)C(=O)c1ccc2c(c1)N(CC)C(=O)c1ccccc1S2(=O)=O
    i	-20	1	·	9.3	3	13	1.8	0.5	-2
- C=C1CCN([C@H](C(=O)NCc2ccc(OC)cc2)C(C)C)S(=O)(=O)c2ccccc21
    i	3	-21	-7	-4.1	-7	-12	6.4	3.3	-5
- COc1ccc(C2C(C#N)=C(N)N(Nc3ccccc3)C3=C2C(=O)CC(C)(C)C3)cc1C (stereo not given)
    ·	16	-1	-4	3.3	·	·	·	·	-8
- COc1ccc(C2CC(=O)C(C=NCC(C)C)=C(O)C2)cc1 (stereo not given)
    i	4	36	32	0.9	-8	-7	-1.4	-1.6	-1
- Cc1ccc(S(=O)(=O)N2CCC(c3nnc(SCCN4CCCC4)n3C)CC2)cc1
    i	22	0	-11	5.4	9	16	-0.8	0.4	-3
- Cc1ccc(C(=O)Nc2ccc(C(=O)N3CCCCC3C)cc2)cc1 (stereo not given)
    i	-6	-12	0	5.6	-9	-8	-0.7	0.6	-14
- CCn1c(Cc2ccc(OC)cc2)nnc1SCC(=O)Nc1nc2ccccc2s1
    ·	13	4	-4	0.1	·	·	·	·	-3
- CCN(CC(=O)Nc1ccc(NC(C)=O)cc1)C(=O)c1cccc(S(=O)(=O)N2c3ccccc3CC2C)c1 (stereo not given)
    i	4	2	30	-1.6	-11	-16	1.8	0.9	-2

Source: PubChem (Broad Institute)
